Bioassay records as filed in PubChem BioAssay.
HIV Env fusion – inhibitors of HIV Env-mediated cell fusion | HeLa-JRFL Env/CEM21 cell fusion, luciferase | AID 651610 | inhibition, % at 12.3 µM | 360,000 tested, 1.1% active;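 active = mean replicate inhibition score of at least 50 and every replicate individually at or above 50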;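 note: 0% = plate neutral controls and 100% = maraviroc near 300 nM; one replicate is shown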
Rce1 inh – inhibitors of yeast Ras-converting enzyme. calls only. AID 2563. Q03530. 290,000 tested, 0.27% active. yeast membranes, quenched prenylated peptide cleavage fluorescence;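 active = fall in fluorescence gain of 50% or more versus controls, with final raw signal at or below 3038400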;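 note: plate controls were neutral control wells for no effect and wells lacking membranes for full effect; tested at 10 µM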
Target sequence (Q03530 whole entry, looked up): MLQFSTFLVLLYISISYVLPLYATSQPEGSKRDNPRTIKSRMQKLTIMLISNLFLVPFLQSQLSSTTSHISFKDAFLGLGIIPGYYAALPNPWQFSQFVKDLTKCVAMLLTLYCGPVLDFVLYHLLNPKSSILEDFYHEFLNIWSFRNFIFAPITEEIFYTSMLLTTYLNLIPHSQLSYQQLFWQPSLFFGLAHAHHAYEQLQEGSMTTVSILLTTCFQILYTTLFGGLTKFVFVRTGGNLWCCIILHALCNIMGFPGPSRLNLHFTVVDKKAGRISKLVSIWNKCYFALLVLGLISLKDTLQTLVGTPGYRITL
CSC inhib – cancer stem cell inhibition; cancer stem cell-like cells viability, luminescence; inhibition, % at 7.5 µM; 300,000 tested, 1.1% active;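 active = mean at 75% or more and at least half the replicates too; tested in HMLE shEcad cells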;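 note: 0% = median of negative and 100% = median of positive control wells; the first replicate is given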
MT1-MMP act inh – blocks activation of human MT1-MMP; HT1080 RFP-PRO-GFP cells, GFP/RFP ratio fluorescence, overnight; percent of plate control window, DMSO zero; AID 651647; 360,000 tested, 0.061% active; P50281; GFP/RFP ratio change, % at 20 µM;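 active = GFP/RFP ratio change of at least 30% with cell ATP level not reduced by more than half and red fluorescence within 50% of control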; note: strong numbers were not always called active
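Compound: 20 µM single dose, 1% DMSO / System: HT1080 RFP-PRO-GFP cells / Controls: DMSO and RFP-L50D-GFP cell wells / Read-out basis: GFP/RFP fluorescence ratio / Schedule: overnight compound exposure at 37 °C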
UUG fidelity – yeast start codon fidelity modulation | 350,000 tested, 0.13% active | AID 602363 | S. cerevisiae UUG-firefly luciferase reporter, luminescence/redox ratio | activity score, % at 18.7 µM;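 active = replicate mean at a twofold rise or more, about +100% in these data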;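 note: firefly luciferase made from a UUG start codon reports start codon fidelity; reporter light over untreated wells divided by growth signal over untreated wells; some hits fall short of that in this replicate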
eIF4H FP inh – inhibitors of RNA binding by human eIF4H; Q15056; eIF4H fluorescence polarization binding assay; inhibition, % at 35 µM; 290,000 tested, 0.94% active;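 active = 50% or more with normal probe brightness, or confirmed in later tests; about a fifth of its hits are not listed in these tables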;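 note: calls also rest on retests at 20 µM and on dose response follow-up; 0% = protein and probe with vehicle and 100% = probe without protein; strong numbers were not always called active; many hits fall short of the cut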
PABP polyA inh – PABP-poly(A) binding inhibition; 290,000 tested, 1% active; inhibition, % at 35 µM; PABP-poly(A) RNA binding, fluorescence polarization;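 active = 50% or more with normal probe brightness, or confirmed in later tests; about a fifth of its hits are not listed in these tables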;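 note: calls also rest on retests at 20 µM and on dose response follow-up; controls were probe without protein and protein plus probe with vehicle; some compounds called inactive have numbers as strong as hits; many hits fall short of the cut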
Target sequence (P11940 whole entry, looked up): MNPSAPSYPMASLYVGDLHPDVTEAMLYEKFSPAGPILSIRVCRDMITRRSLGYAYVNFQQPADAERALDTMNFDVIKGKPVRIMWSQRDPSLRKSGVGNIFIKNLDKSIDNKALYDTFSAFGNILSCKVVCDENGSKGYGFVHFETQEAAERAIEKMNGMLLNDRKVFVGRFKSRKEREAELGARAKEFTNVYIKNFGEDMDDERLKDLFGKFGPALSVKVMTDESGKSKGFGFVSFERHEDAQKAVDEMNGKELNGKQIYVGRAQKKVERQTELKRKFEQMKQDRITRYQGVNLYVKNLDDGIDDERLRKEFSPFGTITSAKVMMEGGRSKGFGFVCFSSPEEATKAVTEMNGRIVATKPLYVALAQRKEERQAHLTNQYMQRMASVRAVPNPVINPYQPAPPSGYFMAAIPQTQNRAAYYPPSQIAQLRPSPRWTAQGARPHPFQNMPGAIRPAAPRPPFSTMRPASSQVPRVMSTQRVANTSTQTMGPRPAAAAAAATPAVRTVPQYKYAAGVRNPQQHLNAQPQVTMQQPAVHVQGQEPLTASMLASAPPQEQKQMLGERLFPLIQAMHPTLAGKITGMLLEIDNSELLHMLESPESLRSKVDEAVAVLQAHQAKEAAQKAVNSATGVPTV
eIF4H FP inh retest – also measured in eIF4H FP inh; calls as there; inhibition, %; compound at 20 µM; confirmation average;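 mean of two retest wells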
PABP polyA inh retest – also measured in PABP polyA inh; calls as there; inhibition, %; compound at 20 µM; confirmation repeats;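 mean of two retest wells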
MT1-MMP act inh RFP – further read-out of MT1-MMP act inh, marked with its call; RFP signal change, %; measured here: RFP expression control read;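 0 = vehicle wells; hits needed this value within 50% of zero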
The depositor's hits bear a star; i = inactive; · = no result given; & = joins results of further samples.

SMILES	HIV Env fusion	Rce1 inh	CSC inhib	MT1-MMP act inh	MT1-MMP act inh RFP	UUG fidelity	eIF4H FP inh	PABP polyA inh	others
COc1cc(NC(=O)CN2C(=O)NC(C)(c3ccc(OC(F)F)cc3)C2=O)cc(OC)c1OC (centres undefined)	-7	i	-11	1	-6	-9	-6	0
CCOC(=O)CNC(=O)COc1coc(CN2CCN(c3ccc(F)cc3)CC2)cc1=O	-2	i	-16	0	2	-10	-3	-7
CC(=O)Nc1nc(C)c(CCCOc2ccc([N+](=O)[O-])cc2)c(=O)[nH]1	-1	i	-13	1	3	-20	-2	-5
O=C(N/N=C/c1cc([N+](=O)[O-])ccc1N1CCCCCC1)c1ccccn1	10	i	·	2	-4	·	0	-11
COc1ccccc1C(=O)NC(CCSC)C(=O)Nc1ccc(C)c(S(=O)(=O)N2CCOCC2)c1 (centres undefined)	·	·	-9	0	-2	8	·	·
O=C(CCC(=O)OCC(=O)c1ccccc1)Nc1cccc2cccnc12	-62	i	15	16	9	25	-8	3
CCN(CC)Cc1c(O)ccc2c(=O)c(Oc3ccccc3OC)c(C)oc12	25	i	-11	2	3	-26	-2	-2
Cc1ccc(OC(=O)c2ccc3nc(C)sc3c2)cc1	-52	·	-3	·	·	·	-7	6
CC(C)(C)C(=O)Cn1c(NCCCO)nc2ccccc21	·	·	-12	7	4	-5	7	1
O=C(CSc1ccc2nnc(CCNC(=O)c3ccccc3)n2n1)NCc1ccco1	-14	i	13	-2	-2	1	-2	10
CCN(CC(=O)Nc1ccc(NC(C)=O)cc1)C(=O)c1ccc(=O)n(C)n1	·	·	-11	-1	4	11	·	·
CC1CCN(S(=O)(=O)c2ccc3c(c2)c(=O)c(C(=O)N2CCCCC2)cn3C)CC1	-70	i	-5	2	-4	3	-1	-1
Cc1ccc(NC(=S)N2CCn3cccc3C2c2cccnc2)cc1 (centres undefined)	-21	i	-8	-1	2	·	2	-19
Cc1ccc(S(=O)(=O)N2CCC(NC(=O)OC(C)C)CC2)cc1	13	i	-12	2	3	·	1	8
Cn1c(=O)c(=O)n(C)c2cc(S(=O)(=O)CCC(=O)Nc3c(F)c(F)c(F)c(F)c3F)ccc21	-6	i	-5	-3	0	3	1	10
COc1ccc(-c2sc(Nc3ccc(F)c(F)c3F)nc2CCC(=O)NN)cc1	21	i	7	4	3	-12	0	5
CN(C(=O)CSc1ccc(S(=O)(=O)N2CCCCC2)cn1)c1ccccc1	-44	·	·	-2	-2	-3	·	·
O=[N+]([O-])c1cncc([N+](=O)[O-])c1Nc1ccccc1Cl	-4	i	-13	1	-4	-29	-7	24
O=C1NC(=Nc2ccccc2)S/C1=C\c1cccs1	-36	i	25	-2	0	·	11	0
OCCN=c1cc(-c2ccccc2)oc2ccc(Cl)cc12	·	i	-16	-4	-1	-9	-9	-1
O=C(NC(NC(=S)Nc1cc(Cl)ccc1Cl)C(Cl)(Cl)Cl)c1ccco1 (centres undefined)	·	·	-1	0	-1	-3	1	-1
CCOc1cc(/C=N/NC(=O)c2cccc([N+](=O)[O-])c2)ccc1OS(=O)(=O)c1ccccc1	-75	i	-15	12	1	-11	0	-8
Cc1nn(CC(=O)Nc2ccccn2)c(C)c1Br	21	i	4	0	1	·	8	11
Cc1nc2c3cnn(-c4ccccc4)c3ncn2n1	·	i	-1	1	6	-6	6	8
Cc1ccc(N(CCC(=O)N2CCOCC2)S(=O)(=O)c2ccccc2)cc1	-39	·	-7	-1	-1	0	·	·

Further structures follow:
SMILES	HIV Env fusion	Rce1 inh	CSC inhib	MT1-MMP act inh	MT1-MMP act inh RFP	UUG fidelity	eIF4H FP inh	PABP polyA inh	others
O=C(CSc1nc(=O)n(CCCN2CCOCC2)c2c1CCCC2)Nc1ccccc1Cl	-4	i	4	-3	-1	-14	·	·
Cc1ccc(-c2cnc(NC(=O)c3cccc(Br)c3)s2)c(C)c1	·	i	9	-37	-34	-22	-11	-8
CC(=O)NC(c1ccccc1)c1nc(-c2cccs2)cs1 (centres undefined)	-9	·	·	-3	2	-10	·	·
Cc1ccc(C(=O)NS(=O)(=O)c2ccc(N=NN(C)C)cc2)cc1	0	i	-5	3	5	·	0	10
Cc1cc(NCc2ccccn2)ccc1Br	·	i	12	11	4	-9	-1	9
C[C@H](CO)N1C[C@H](C)[C@@H](CN(C)C)OCc2cnnn2CCCC1=O	-9	·	·	4	8	-20&7&2	·	·
Cc1[nH]n(-c2ccccc2)c(=O)c1C1(C(F)(F)F)C(=O)N(c2ccc(F)cc2)C2=C1C(=O)CC(C)(C)C2 (centres undefined)	·	i	-20	-3	-1	-3	-2	6
CCCN(C(=O)CSc1nnc(N)s1)c1c(N)n(Cc2ccccc2)c(=O)[nH]c1=O	9	·	·	0	3	-16	·	·
Clc1ccc(-c2nc3nc4ccccc4nc3n2Cc2ccco2)cc1	-349	·	3	2	0	0	14	2
O=c1[nH]nc(Cc2ccc([N+](=O)[O-])cc2)c2ccccc12	0	i	0	3	1	2	1	2
CC(C(=O)OCC(=O)c1ccccc1)N1C(=O)c2ccccc2C1=O (centres undefined)	-10	i	-1	2	5	·	-13	1
COc1cc2c(=O)n(CCC(=O)NCC3CCCO3)c(=O)n(CC(=O)c3ccc(Cl)cc3)c2cc1OC (centres undefined)	8	i	-15	1	0	·	2	-5
COc1ccc(-n2c(CCC(=O)O)ccc2-c2ccccc2)cc1	-1	i	-2	0	2	-11	-9	0
O=C1c2ccccc2CC1Sc1nnc(-c2ccncc2)o1 (centres undefined)	13	i	3	-5	2	-19	4.2*	72*	eIF4H FP inh retest=82*;PABP polyA inh retest=87*
CN(Cc1nc2ccccc2c(=O)[nH]1)C(=O)c1ccc(S(=O)(=O)N(C)C)cc1	-60	i	-12	15	1	9	-5	-1
CS(=O)(=O)N(CC(=O)NCCc1ccccc1)c1cccc([N+](=O)[O-])c1	7	i	0	-3	2	·	1	12
C=CCNC(=O)C1CC2Cn3c(nc4cc(C)c(C)cc43)C2N1C (centres undefined)	22	i	-6	2	3	-13	2	-7
COCCOC(=O)C1=C(C)NC(=O)CC1c1cc2c(cc1Br)OCO2 (centres undefined)	-61	i	-1	6	5	12	-11	0
Cc1cc(C)nc(/N=C(\N)Nc2ccc(-c3ccccc3)cc2)n1	-5	i	55	-4	-19	·	-10	-5
CC1=NN(c2ccccc2)C(=O)C1C=Nc1ccc(N(C)C)cc1 (centres undefined)	-46	·	86*	-5	0	-8	-1	1
Cc1cc(C(=O)N2CCN(c3cccc(Cl)c3)CC2)c(C)o1	24	i	5	-3	-9	-7	4	4
Nc1c(C(=O)O)ccc2c1C(=O)c1ccccc1C2=O	23	i	-3	31	67	·	4	32
CC(C)NC(=O)N(C)C[C@@H]1OCc2cn(nn2)CCCC(=O)N([C@H](C)CO)C[C@H]1C	-17	·	·	-1	5	-2&0	·	·
CC(C)(C)NC(=S)NC(C)(C)C	-27	i	·	0	1	-11	-7	4
CC1=Nn2c(nnc2-c2cc(C)[nH]n2)SC1	·	i	-5	5	3	-20	-2	4

(next part)
SMILES	HIV Env fusion	Rce1 inh	CSC inhib	MT1-MMP act inh	MT1-MMP act inh RFP	UUG fidelity	eIF4H FP inh	PABP polyA inh	others
CN(C)S(=O)(=O)c1ccc(C(=O)Nc2nc(-c3cccs3)cs2)cc1	76*	i	21	-4	-28	-21	1	2
OC(c1ccccc1)c1ncc(-c2ccc(Cl)cc2)[nH]1 (centres undefined)	7	·	·	-2	1	-16	·	·
Cc1ccc(C)c(OCCC(=O)Nc2cccc(S(=O)(=O)N3CCCC3)c2)c1	·	i	2	-4	-8	·	·	·
Cc1ccccc1NN1C(=O)C=CC1=O	·	i	-10	-1	0	-15	4	2
CCNC(=S)Nc1ccc(Cc2ccncc2)cc1	-2	i	-6	-4	-4	-14	5	4
COc1cc(OC)c(NC(=O)CCCNC(=O)Cn2cnc3sc(C)c(C)c3c2=O)cc1Cl	19	i	-13	4	1	-14	6	-7
O=C(CCCOc1ccccc1)N1CCCCC1	·	i	-11	-1	1	-10	-22	-3
CC1(C)Oc2ccc3ccc(=O)oc3c2/C(=C/Nc2ccccc2)C1=O	-39	·	-3	-4	-3	-12	2	6
O=C1CCC(=O)N1c1ccc(NCCc2ccccc2F)c([N+](=O)[O-])c1	5	i	-6	5	4	-17	3	-12
COc1ccc([N+](=O)[O-])cc1NC(=O)C(C)Sc1nc(C)c(C)c(C)n1 (centres undefined)	39	i	7	6	3	·	-8	0
O=C(CSc1nnc(NC(=O)c2ccccc2F)s1)NC1CCCC1	-23	i	-7	0	3	-9	-21	-14
COc1ccc(CN(C)CC2CCCN(CCc3ccccc3C)C2)cc1O (centres undefined)	10	i	10	6	4	-26	16	0
CC(Sc1nnc(Cc2ccc([N+](=O)[O-])cc2)o1)C(N)=O (centres undefined)	·	i	-9	2	0	·	-1	-4
Cc1ccc2oc(-c3cccc(NC(=O)Cc4cccs4)c3)nc2c1	-73	i	5	6	1	-30	-9	-7
Cc1cc(Br)ccc1SCC(=O)OCC(=O)Nc1ccc2[nH]c(=O)[nH]c2c1	-14	·	·	-1	3	-19	·	·
O=C(/C=C/c1ccco1)NC(=S)Nc1nc(-c2ccc3ccccc3c2)cs1	·	i	76*	-4	-10	0	70	20	eIF4H FP inh retest=2;PABP polyA inh retest=-6
COc1cc2c(cc1OC)CN(C(=S)Nc1cccc(Cl)c1C)CC2	21	i	-2	7	-4	·	0	3
Cc1cc(C)cc(OCc2nnc(SCC(=O)N3CCCCC3)o2)c1	9	·	-6	-1	-1	-20	-3	4
CCCCn1c(N)c(N(CC(C)C)C(=O)CN2C(=O)NC3(CCC(C(C)(C)CC)CC3)C2=O)c(=O)[nH]c1=O (centres undefined)	3	·	·	1	-5	-5	·	·
CCN(CC)C(=O)c1cccc(NC(=O)CCc2nc3sc4c(c3c(=O)[nH]2)CCCC4)c1	43	·	·	1	-10	-10	·	·
CCc1cc(C(=O)OC)c(NC(=O)C2CC(=O)NN2Cc2ccccc2)s1 (centres undefined)	-101	i	-13	-6	-8	5	-1	5
S=C(NCCc1ccc(Cl)cc1)NC1CC1	-17	i	4	1	-3	·	24	-1
C(C#CCN1CCOCC1)#CCN1CCOCC1	-11	·	·	0	10	5	·	·
CC(=O)c1ccc(OCCCC(=O)Nc2nnc(C3CC3)s2)cc1	-19	·	-16	0	2	-16	·	·
O=C(Cc1cccc(NC(=O)C2CCCN(C(=O)C3CCCC3)C2)c1)Nc1cccc(C(=O)N2CCOCC2)c1 (centres undefined)	-4	·	·	3	1	9	·	·
COc1cc(NC(=S)NCCc2ccccc2)c(OC)cc1NC(=O)C(C)C	-8	i	-11	3	4	-28	-4	2
O=C1CSC(c2cccnc2)N1Cc1ccc(Cl)c(Cl)c1 (centres undefined)	8	i	3	1	1	·	-5	0
CCCn1nnc(NC(=O)c2cccc(Cl)c2)n1	·	i	18	2	6	-19	4	-6
CCNC(=S)N(Cc1cc2cccc(C)c2[nH]c1=O)C1CCCC1	·	i	-11	-4	-2	-12	-2	2
O=C(OCc1cn(-c2ccc(Cl)c(Cl)c2)nn1)c1ccccc1Cl	-6	i	-10	7	4	-15	6	1

Not all compounds are listed; count on the stated rates, not on these rows.
